Vaccinia mCherry: qHTS for Stage-Specific Inhibitors of Vaccinia Orthopoxvirus: mCherry Reporter Primary qHTS; Potency, µM (highest dose often 36.5 µM), for the others: at the top dose activity change, negative = inhibition, usual class: inhibitors; 310,000 compounds, 0.63% hits; Vaccinia virus mCherry reporter infection, fluorescence; about a quarter of the inactives have no number; AID 720579, 2013; active = well fitted inhibition curve with a large enough effect; inconclusive = small, poorly fitted or top-dose-only effect; inactive = no such curve, though single readings can be large or run the other way; tested in A549 cells; also: nearly all actives have a fitted effect of over 35% in size; inactives centre near -10
VACV Venus inh: qHTS for Stage-Specific Inhibitors of Vaccinia Orthopoxvirus: Venus Reporter Primary qHTS; AID 720580, 2013; 330,000 compounds, 0.46% hits; Vaccinia virus Venus reporter expression, fluorescence; Potency, µM (top dose mostly 36.5 µM), for the others: top-dose activity change, negative = inhibition, hits mostly inhibitors; active means well fitted inhibition curve with a large enough effect; inconclusive means small, poorly fitted or top-dose-only effect; inactive means no such curve, though single readings can be large or run the other way; tested in A549 cells; also: nearly all actives have a fitted effect of over 30% in size; inactives centre near -10
* hit, by the source's call; i = inactive; ? = inconclusive; · = not tested or not shown; & = joins results of further samples; [ ] = remark or other dose. % is scaled to controls: 0 for no effect and ±100 for the full control effect; potency is read from the fitted curve at half-maximal effect. Rows were taken by chance. Share with any hit: about 0.86%.

SMILES	Vaccinia mCherry	VACV Venus inh
Cc1cccc(CCNC(=O)c2cccc3c2C(=O)N(C2CCCCC2)C3)c1	-5%	-1%
CSc1ccccc1-c1nc(-c2ccncc2)no1	-29%	-6%
CCOc1ccc2oc(C(=O)Nc3cc(C)ccn3)c(C)c2c1	-10%	-13%
CCN(CC)C(=O)[C@H]1C[C@H](CC(=O)NCCN2CCOCC2)C(=O)N2CCc3c([nH]c4cc(-c5ccco5)ccc34)[C@]12C	-11%	-29%
Cc1ccccc1OCC(=O)N1N=C(c2cccnc2)CC1(O)C(F)(F)F (stereo not drawn)	i	-17%
Cc1cccc(OCCC(=O)Nc2ccc(F)c(Cl)c2)c1	-6%	-26%
CC(=O)N1CCN(S(=O)(=O)c2cccc(C(=O)Nc3cc(C(F)(F)F)ccc3N3CCOCC3)c2)CC1	-13%	-17%
c1ccc(CSc2nnc3ccc(-c4cccs4)nn23)nc1	-12%	-4%
CCN1CCN(c2ccc(NC(=O)CCc3c(C)nc4c(-c5ccc(F)cc5)c(C)nn4c3C)cc2)CC1	?	?
CCN(CC)C(=O)CN1CCC(n2c(C)nc3cc(C(F)(F)F)ccc32)CC1	-7%	-13%
C=CCN(Cc1nc(-c2ccccc2)no1)C(=O)c1ccoc1C	-5%	-13%
CN1C(=O)c2ccc(N(C)C)cc2C1=O	·	-19%
O=C(O)C1CSC(c2coc3ccccc3c2=O)N1 (stereo not drawn)	-12%	-2%
C=CCOc1ccc(C2/C(=C(\O)c3c(C)[nH]c(C(=O)OC)c3C)C(=O)C(=O)N2CCN(C)C)cc1 (stereo not drawn)	-22%[1.46 µM]	-27%
COc1ccc(Nc2nc3c(S(=O)(=O)c4ccc(C)cc4)nnn3c3ccsc23)cc1Cl	?	?
CCOC(=O)N1CCN(C(=O)c2ccc(-n3c(C)ccc3C)cc2)CC1	0%	-6%
CCC(=O)N1CCc2cc(Br)cc(S(=O)(=O)N3CCCC(C(=O)Nc4cccc(C)c4C)C3)c21 (stereo not drawn)	-22%	-19%
Cc1ccc(C)c(NC(=O)c2cnc3n(c2=O)CCS3)c1	-15%	-18%
Cc1ccc(C)c(OCc2cc(C(=O)N3C[C@H]4C[C@@H](C3)c3cccc(=O)n3C4)no2)c1	-9%	-5%
CCCc1nnc(SCC(=O)N2CCCC(C)C2)n1CC1CCCO1 (stereo not drawn)	-11%	-4%
Cc1cccc(-n2c(SCCC(=O)O)nnc2-c2cccs2)c1C	·	?
COC(=O)c1cc(OC)c(OC)cc1NC(=O)CCc1ccc(C)o1	·	-11%
O=C(CSc1nnc(NC2CC2)s1)c1ccc[nH]1	-21%	-14%
Cc1cc2ccccc2n2c(SCC(=O)N3CCOCC3)nnc12	-17%	-6%
CN1CCc2c1nc1ccccc1c2N (tested in a mixture with another compound)	-10%	3%
CCC1C(=O)N=C(SCC(=O)Nc2ccc(C)cc2)N(c2ccccc2)C1=O (stereo not drawn)	-11%	1%
Cc1cccc(NS(=O)(=O)c2cccc(C(=O)NCC(c3ccc(F)cc3)N3CCOCC3)c2)c1 (stereo not drawn)	?	-21%
Cc1ccc(-c2nc3ccc(Cl)cn3c2CC(C)(C)C)cc1	?	-14%
O=C(NCCN1CCC2(CC1)C(=O)NCN2c1cccc(F)c1)c1ccc2ccccc2c1	6%	-5%
CSCC[C@H](NC(=O)c1nn(C)c(=O)c2ccccc12)c1nc2ccccc2[nH]1	-5%	-8%
COc1ccc(C2(O)CCN(CC(=O)Nc3nc(-c4ccccc4)cs3)CC2)cc1	?	-21%
c1csc(CCNc2ncnc3sc4c(c23)CCC4)c1	-25%	?
CC(=O)Nc1cccc(C(=O)OCC(=O)Nc2nnc(-c3ccccc3)o2)c1	-12%	-3%
Cc1ccc(/C=N/Nc2cccc(C(=O)O)c2)s1	i	-10%
CC(=O)c1sc(NC(=O)C2CSC3(C)CCC(=O)N23)nc1-c1ccccc1 (stereo not drawn)	-19%	-10%
Cc1cccc2c(N=NC(=O)C(C)n3cnc4ccccc4c3=O)c(O)[nH]c12 (stereo not drawn)	-10%	-28%
Cc1ccc(C(=O)Nc2cccc(C(=O)N/N=C/c3ccc(F)cc3)c2)cc1	i	-2%
O=[N+]([O-])c1ccc(Cl)c(S(=O)(=O)n2ccnc2)c1	-9%	-4%
COc1ccc(-c2ccc3c(N)c(C(=O)Nc4cccc(C)c4)sc3n2)cc1	i	-14%
CCCCCn1cnnc1SCC(=O)c1c(N)n(C2CC2)c(=O)[nH]c1=O	-9%	-7%
O=S(=O)(c1ccccc1)c1nc(-c2ccccc2)oc1NCCCN1CCOCC1	-10%	-13%
CCCNC(=O)COC(=O)CCC(=O)c1ccc(F)cc1	-15%	-5%
CC(=O)NS(=O)(=O)c1ccc(N)cc1	-19%&-15%	-8%&-8%&-7%
Nc1nc2c(ncn2COC(CO)CO)c(=O)[nH]1	9%	-10%&9%
C/C(=N\NC(=O)c1ccc(Cn2cc(Br)cn2)o1)c1cccc(NC(=O)C(C)(C)C)c1	i	-10%
O=C(C(c1ccccc1)c1ccccc1)N1CCN(CCN2C(=O)c3cccc4cccc(c34)C2=O)CC1	-21%	-19%
CC(C)C(NC(=O)C(NC(=O)C1OC2OC(C)(C)OC2C2OC(C)(C)OC12)C(C)C)C(=O)O (stereo not drawn)	i	4%
CC(C)C(=O)NC(NC(=S)NC1CCS(=O)(=O)C1)C(Cl)(Cl)Cl (stereo not drawn)	-9%	-4%
COc1ccc(NC(=O)C2=C(C)Nc3nc(SCc4ccccc4C)nn3C2c2cc(OC)c(O)c(OC)c2)cc1 (stereo not drawn)	-3%	-2%
CN1CCCCCC1=NC1=C(C#N)CCCC1	·	?
CCOC(=O)C(NC(=O)c1ccccc1)(Nc1cccc(C)n1)C(F)(F)F (stereo not drawn)	1%	6%
CCOC(=O)c1c(NC(=O)C2CCCCC2)sc2c1CCN(C(C)C)C2	i	-8%
Cc1ccccc1Nc1cc(C(=O)NCCc2ccc(Cl)cc2)c2ccccc2n1	-14%	-6%
CC1CN(C(=O)COC(=O)c2cccs2)CC(C)O1 (stereo not drawn)	i	-5%
CCOC(=O)C1Nc2ccc(C)cc2C2C=CCC12 (stereo not drawn)	i	-21%
COC(=O)N/N=C/c1cc(OC)c(O)c([N+](=O)[O-])c1	i	-14%
CC(=O)C1=C(NC(=O)c2ccc(F)cc2)CC2C1C2(C)C (stereo not drawn)	-12%	-10%
O=C(c1nnc(Cc2ccc(Cl)cc2)o1)N1CCOCC1	-15%	-7%
COC(=O)c1ccc(NC(=O)CSc2nnc(Cc3cccn3C)n2-c2ccc(F)cc2)cc1	-9%	-15%
Cn1c(Br)nc2c1c(=O)n(CC(O)COc1ccccc1)c(=O)n2C (stereo not drawn)	-15%	-9%

Carrying on.
SMILES	Vaccinia mCherry	VACV Venus inh
N#CCc1nn2c3c(cnc2c1C#N)C(=O)CCC3	-1%	0%
CCOC(=O)c1cccc(NC(=O)C2CCCN(S(=O)(=O)c3ccc4c(c3)oc(=O)n4C)C2)c1 (stereo not drawn)	0%	0%
CCCCC[C@@H]1C=C(C(=O)OCC)[C@H](c2ccccc2)N1S(=O)(=O)c1ccc(C)cc1	5%	-1%
Cc1ccc2c(c1)CCCN2C(=O)c1cccs1	-14%	-5%
Cc1ccc2c(=O)cc(C(=O)Nc3c(C)cccc3C)oc2c1	-15%	-4%
CCC(C)NC(=O)C1CCN(S(=O)(=O)c2cccs2)CC1 (stereo not drawn)	i	-18%
Cc1ccc(C(=O)C(C)[n+]2cccc(C(N)=O)c2)cc1 (stereo not drawn)	i	-8%
COc1ccc(CCC(=O)Nc2ccc(N3CCOCC3)cc2)cc1	-3%	2%
Cc1nc2cc(-c3ccc(Cl)cc3)nn2c(C)c1CCC(=O)N1CCN(c2ccccc2)CC1	-14%	-8%
COc1ccccc1-c1nnc2n(CCc3ccccc3)c(=O)c3ccccc3n12	-16%	0%
COc1ccc(NC(=O)CSc2nc3sc(C)c(C)c3c(=O)n2Cc2ccco2)cc1	-9%	-5%
CCOc1ccc(C(=O)Nc2ccc3nc(SCC(=O)N4CCOCC4)sc3c2)cc1	?	-25%
COc1ccc(OCC(=O)Nc2c(C)ccc3nsnc23)cc1	-10%	-4%
COc1ccc(C(C#N)=Cc2ccc(NC(C)=O)cc2)cc1	-3%	-7%
COc1ccc(CNC(=O)CCCn2c(=S)[nH]c3cc4c(cc3c2=O)OCO4)cc1	i	-7%
COc1ccc(-c2cnc(N)nc2-c2ccc(OC)cc2O)cc1	?	-25%
O=C(NCCCN1CCOCC1)C(=O)NCC1OCCN1S(=O)(=O)c1cc(F)ccc1F (stereo not drawn)	-3%	-12%
CCOc1ccc(-n2c(C)c(C(=O)O)c3cc(OC)ccc32)cc1	i	-7%
CCOC(=O)c1ccc(NC(=O)c2cc3c([nH]c2=O)CC(c2ccccc2)CC3=O)cc1 (stereo not drawn)	2%	-1%
Cc1ccc(-c2cc(C(F)F)n3ncc(C(=O)N4CCCc5ccccc54)c3n2)cc1	i	-13%
COc1ccc(CCNC(=O)c2cc(C)oc2C)cc1OC	i	-13%
O=C(/C=N/O)NCc1cccnc1	i	-13%
CCCCCCn1c(CN2CCC(C)CC2)nc2c1c(=O)n(C)c(=O)n2C	-15%	3%
O=C(O)CCn1cc(C=C2C(=O)NC(=S)NC2=O)c(-c2cc3ccccc3oc2=O)n1	-10%	23%
CCCCCOC(=O)CSc1ncnc2c1sc1nc(N3CCOCC3)c3c(c12)CCCC3	-8%	-2%
Cc1ccc(NC(=O)N2CCc3cc(S(=O)(=O)N4CCC(C)CC4)ccc32)cc1	-13%	-13%
O=c1c2cc(NC(=S)NC3CCN(Cc4ccccc4)CC3)ccc2nc2n1CCCCC2	-5%	?
Cc1ccc(CNC(=O)CSCc2nc(-c3cccc(C)c3)oc2C)cc1	-7%	-9%
CCCCN(c1ccccc1)S(=O)(=O)c1cccc(C(=O)O)c1	7%	-4%
CCc1cc(=O)oc2c3c(cc(OCC(=O)NCc4ccco4)c12)OC(C)(C)CC3	-7%	2%

Another view of 19 compounds above:
| Compound | Vaccinia mCherry | VACV Venus inh |
| --- | --- | --- |
| COc1ccccc1-c1nnc2n(CCc3ccccc3)c(=O)c3ccccc3n12 | -16% | 0% |
| COc1ccc(NC(=O)CSc2nc3sc(C)c(C)c3c(=O)n2Cc2ccco2)cc1 | -9% | -5% |
| CCOc1ccc(C(=O)Nc2ccc3nc(SCC(=O)N4CCOCC4)sc3c2)cc1 | ? | -25% |
| COc1ccc(OCC(=O)Nc2c(C)ccc3nsnc23)cc1 | -10% | -4% |
| COc1ccc(C(C#N)=Cc2ccc(NC(C)=O)cc2)cc1 | -3% | -7% |
| COc1ccc(CNC(=O)CCCn2c(=S)[nH]c3cc4c(cc3c2=O)OCO4)cc1 | i | -7% |
| COc1ccc(-c2cnc(N)nc2-c2ccc(OC)cc2O)cc1 | ? | -25% |
| O=C(NCCCN1CCOCC1)C(=O)NCC1OCCN1S(=O)(=O)c1cc(F)ccc1F (stereo not drawn) | -3% | -12% |
| CCOc1ccc(-n2c(C)c(C(=O)O)c3cc(OC)ccc32)cc1 | i | -7% |
| CCOC(=O)c1ccc(NC(=O)c2cc3c([nH]c2=O)CC(c2ccccc2)CC3=O)cc1 (stereo not drawn) | 2% | -1% |
| Cc1ccc(-c2cc(C(F)F)n3ncc(C(=O)N4CCCc5ccccc54)c3n2)cc1 | i | -13% |
| COc1ccc(CCNC(=O)c2cc(C)oc2C)cc1OC | i | -13% |
| O=C(/C=N/O)NCc1cccnc1 | i | -13% |
| CCCCCCn1c(CN2CCC(C)CC2)nc2c1c(=O)n(C)c(=O)n2C | -15% | 3% |
| O=C(O)CCn1cc(C=C2C(=O)NC(=S)NC2=O)c(-c2cc3ccccc3oc2=O)n1 | -10% | 23% |
| CCCCCOC(=O)CSc1ncnc2c1sc1nc(N3CCOCC3)c3c(c12)CCCC3 | -8% | -2% |
| Cc1ccc(NC(=O)N2CCc3cc(S(=O)(=O)N4CCC(C)CC4)ccc32)cc1 | -13% | -13% |
| O=c1c2cc(NC(=S)NC3CCN(Cc4ccccc4)CC3)ccc2nc2n1CCCCC2 | -5% | ? |
| Cc1ccc(CNC(=O)CSCc2nc(-c3cccc(C)c3)oc2C)cc1 | -7% | -9% |

Additional results:
SMILES	Vaccinia mCherry	VACV Venus inh
Cc1cc(Cl)c2oc(C(=O)NCCC3CCCCO3)c(C)c2c1 (stereo not drawn)	i	-14%
O=C(NCCN1C(=O)S/C(=C\c2ccc(F)cc2)C1=O)C1CCN(S(=O)(=O)c2cccs2)CC1	i	-6%
O=C(CN1C(=O)CCC1=O)NCC12CC3CC(CC(C3)C1)C2	-24%	-24%
Cn1c(C(=O)Nc2ccc3c(c2)OCO3)cc2sccc21	-22%	-14%
Cc1cccc(N2CCN(c3nc4ccccc4c4nc(-c5cccnc5)nn34)CC2)c1C	-14%	-7%
S=C(NCCc1ccccn1)NC1CC2CCC1C2 (stereo not drawn)	-14%	-12%
CCOC(=O)c1c(NC(=O)c2cc(CC)on2)sc(C)c1C	-7%	4%
COc1ccc(CCc2nc3ccccc3n2C(CCc2ccccc2)c2nc3ccccc3[nH]2)cc1 (stereo not drawn)	-29%	-18%
CN(C)C(=O)COc1ccc2ccc(=O)oc2c1	-14%	-17%
Nc1nc(=S)c2ncn(C3CCCCC3)c2[nH]1	i	-12%
C=CCN=C1NN=C(c2cc(C)n(CC=C)c2C)CS1	-1%	-1%
CCOC(=O)CC(NC(=O)c1cc2cc(Cl)cc(Cl)c2oc1=O)c1cccc([N+](=O)[O-])c1 (stereo not drawn)	-12%	-5%
CCN(CC)CCNC(=O)c1sc2nc(C)cc(C)c2c1-n1cccc1	-2%	0%

From PubChem BioAssay
